# Bioassay records as filed in PubChem.
# Env fusion inh – inhibitors of HIV Env-mediated cell fusion; AID 651610; inhibition, % at 12.3 µM; actives 1.1% (n = 360,000); HeLa-JRFL Env/CEM21 cell fusion, luciferase;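 active = mean replicate inhibition score of at least 50 and every replicate individually at or above 50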;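 note: 0% = plate neutral controls and 100% = maraviroc near 300 nM; one replicate is shown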
# Yeast UUG start – yeast start codon fidelity modulation | S. cerevisiae UUG-firefly luciferase reporter, luminescence/redox ratio | activity score, % at 18.7 µM | actives 0.13% (n = 350,000) | AID 602363;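 active = replicate mean at a twofold rise or more, about +100% in these data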;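 note: firefly luciferase made from a UUG start codon reports start codon fidelity; reporter light over untreated wells divided by growth signal over untreated wells; some hits fall short of that in this replicate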
# MT1-MMP act inh – blocks activation of human MT1-MMP; P50281; HT1080 RFP-PRO-GFP cells, GFP/RFP ratio fluorescence, overnight; percent of plate control window, DMSO zero; GFP/RFP ratio change, % at 20 µM; actives 0.061% (n = 360,000); AID 651647;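 active = GFP/RFP ratio change of at least 30% with cell ATP level not reduced by more than half and red fluorescence within 50% of control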; note: strong numbers were not always called active
#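 Compound: 20 µM single dose, 1% DMSO / System: HT1080 RFP-PRO-GFP cells / Controls: DMSO and RFP-L50D-GFP cell wells / Read-out basis: GFP/RFP fluorescence ratio / Schedule: overnight compound exposure at 37 °C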
# eIF4H inh – inhibitors of RNA binding by human eIF4H | Q15056 | eIF4H fluorescence polarization binding assay | inhibition, % at 35 µM | actives 0.94% (n = 290,000);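 active = 50% or more with normal probe brightness, or confirmed in later tests; about a fifth of its hits are not listed in these tables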;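 note: calls also rest on retests at 20 µM and on dose response follow-up; 0% = protein and probe with vehicle and 100% = probe without protein; strong numbers were not always called active; many hits fall short of the cut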
# Rce1 inh – blocks yeast Ras-converting enzyme; actives 0.27% (n = 290,000); yeast membranes, quenched prenylated peptide cleavage fluorescence; calls only; AID 2563; Q03530;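 active = fall in fluorescence gain of 50% or more versus controls, with final raw signal at or below 3038400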;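 note: plate controls were neutral control wells for no effect and wells lacking membranes for full effect; tested at 10 µM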
# Target sequence (Q03530 whole entry, looked up): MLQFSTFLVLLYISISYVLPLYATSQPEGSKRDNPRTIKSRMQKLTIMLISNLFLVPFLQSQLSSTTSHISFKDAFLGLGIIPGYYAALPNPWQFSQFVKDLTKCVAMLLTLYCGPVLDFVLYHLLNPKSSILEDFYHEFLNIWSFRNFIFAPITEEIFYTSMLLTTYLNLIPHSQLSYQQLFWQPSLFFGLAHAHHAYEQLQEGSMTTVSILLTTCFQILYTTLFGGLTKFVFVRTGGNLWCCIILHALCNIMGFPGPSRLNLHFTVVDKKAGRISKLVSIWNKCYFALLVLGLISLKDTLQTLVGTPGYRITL
# PABP FP inh – blocks human PABP binding to poly(A) RNA. AID 2014. fluorescence polarization. inhibition, % at 35 µM. actives 1% (n = 290,000). P11940;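 active = 50% or more with normal probe brightness, or confirmed in later tests; about a fifth of its hits are not listed in these tables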;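 note: calls also rest on retests at 20 µM and on dose response follow-up; controls were probe without protein and protein plus probe with vehicle; some compounds called inactive have numbers as strong as hits; many hits fall short of the cut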
# Target sequence (P11940 whole entry, looked up): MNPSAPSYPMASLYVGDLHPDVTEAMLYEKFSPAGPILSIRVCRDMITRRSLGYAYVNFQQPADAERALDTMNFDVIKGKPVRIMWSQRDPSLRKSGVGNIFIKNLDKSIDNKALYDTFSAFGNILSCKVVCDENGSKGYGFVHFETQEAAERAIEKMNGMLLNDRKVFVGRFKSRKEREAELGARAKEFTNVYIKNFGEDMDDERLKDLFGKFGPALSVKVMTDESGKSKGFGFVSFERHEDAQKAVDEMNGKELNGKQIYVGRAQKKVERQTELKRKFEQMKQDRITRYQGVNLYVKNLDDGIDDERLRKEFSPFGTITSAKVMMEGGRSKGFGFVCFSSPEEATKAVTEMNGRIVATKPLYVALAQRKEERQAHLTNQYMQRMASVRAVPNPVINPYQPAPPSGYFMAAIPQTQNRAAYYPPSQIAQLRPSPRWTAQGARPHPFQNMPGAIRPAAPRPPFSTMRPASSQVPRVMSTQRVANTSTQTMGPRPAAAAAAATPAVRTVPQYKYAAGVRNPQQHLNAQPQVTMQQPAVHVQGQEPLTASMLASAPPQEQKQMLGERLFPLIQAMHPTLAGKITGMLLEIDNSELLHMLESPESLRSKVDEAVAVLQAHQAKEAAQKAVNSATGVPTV
# CSC inhib – cancer stem cell inhibition; cancer stem cell-like cells viability, luminescence; inhibition, % at 7.5 µM; actives 1.1% (n = 300,000); AID 2717;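 active = mean at 75% or more and at least half the replicates too; tested in HMLE shEcad cells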;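 note: 0% = median of negative and 100% = median of positive control wells; the first replicate is given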
# eIF4H inh retest – further read-out of eIF4H inh, marked with its call; inhibition, %; compound at 20 µM; confirmation average;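 mean of two retest wells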
# PABP FP inh retest – also measured in PABP FP inh; calls as there; inhibition, %; compound at 20 µM; confirmation repeats;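 mean of two retest wells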
# MT1-MMP act inh RFP – second read-out of MT1-MMP act inh, no call of its own (marks repeat the call); RFP signal change, %; measured here: RFP expression control read;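 0 = vehicle wells; hits needed this value within 50% of zero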
# Starred values were filed as active, the others as inactive; i = inactive; x = not tested or not shown; & = joins results of further samples; [ ] = dose if it differs, or a comment.
SMILES,Env fusion inh,Yeast UUG start,MT1-MMP act inh,MT1-MMP act inh RFP,eIF4H inh,Rce1 inh,PABP FP inh,CSC inhib,others
O=C(O)c1ccccc1C(=O)N1CCN(C(=O)c2ccccc2Cl)CC1,4,x,-11,1,-3,i,-4,x,
CCn1cc(S(=O)(=O)c2ccc(OC)cc2)c(=O)c2cc(OC)ccc21,8,-7,-8,0,-12,i,3,11,
Cn1ncc(Cl)c1C(=O)NC(=S)Nc1sc2c(c1C#N)CCCCC2,i,-19,0,1,0,i,0,23,
Cc1cc(C)nc(N2CCCC(C(=O)Nc3nnc(C(C)C)s3)C2)n1 (configuration not stated),-116,x,x,x,8,i,4,x,
NC(=O)c1nn(CC(=O)Nc2cccc(S(=O)(=O)N3CCCCCC3)c2)c(=O)c2ccccc12,x,-10,4,-7,x,x,x,15,
CC(CC(=O)Nc1cccc(F)c1)S(=O)(=O)c1ccc2c(c1)NC(=O)CO2 (configuration not stated),0,-16,2,0,6,i,5,-4,
Cc1ccc(NC2CCCN(C(=O)c3ccoc3)C2)cc1C (configuration not stated),1,-5,5,4,-5,i,15,x,
Cc1cccc2sc(N(CCCN(C)C)C(=O)c3nc4ccccc4s3)nc12,-4,0,6,7,-12,i,-15,3,
CC(=O)c1ccc(NC(=O)CCS(=O)(=O)c2ccc3c(c2)n(C)c(=O)c(=O)n3C)cc1,x,5,-1,1,2,i,-5,-14,
O=C(NC1CCCN(Cc2ccc(Cl)cc2)C1)c1ccccc1C(F)(F)F (configuration not stated),-6,-17,0,-1,0,i,-14,-3,
CSc1sc(C(=O)NCC2CC2)c2c1S(=O)(=O)N(C)c1ccccc1-2,8,x,2,0,-6,i,1,-4,
CCCCOC(=O)n1c(SCC(=O)N(C)C)nc2ccccc21,15,18,6,2,-1,i,2,-20,
COc1cccc(CN2CCC(C(=O)NC(c3ccc4c(c3)OCO4)c3ccccn3)CC2)c1 (configuration not stated),i,-25,1,5,x,x,x,x,
COc1cccc(NC(=O)C(Sc2nnnn2C)c2ccccc2)c1 (configuration not stated),-11,x,1,4,-6,i,6,-10,
COc1ccc(S(=O)(=O)N(C)C[C@H]2OCc3cn(nn3)CCCC(=O)N([C@H](C)CO)C[C@@H]2C)cc1,-1[16.7 µM],-6&2,0,4,x,x,x,x,
CC(=O)N1CCC(N(C(=O)Nc2ccc(C)c(C)c2)C2CCCC2)CC1,x,-5,3,8,4,i,6,10,
O=C(Nc1ccccc1C(=O)O)c1ccc(CN2C(=O)c3ccccc3C2=O)cc1,-16,-11,-1,9,0,x,3,-10,
CCOC(=O)C1CC(=NO)c2ccc(OC)c(OC)c2C1 (configuration not stated),-8,-6,-3,4,x,x,x,x,
Cc1ccccc1/C=N/Nc1ccnc2cc(Cl)ccc12,-19,2,-2,-15,-19,i,3,84*,
CC1CCCC(NC(=O)COC(=O)Cc2c[nH]c3ccccc23)C1C (configuration not stated),2,x,-2,1,1,i,4,-12,
N#Cc1ccc(C(=O)Nc2ccn(-c3ccccc3)n2)cc1,15,x,0,-12,-12,i,6,4,
COC(=O)C1CCN(C(=O)/C=C/c2ccccc2)CC1,-68,x,0,1,12,i,-5,-1,
CC(=O)c1cc(C#N)c(NCCCN(C)C)nc1C,-5,-15,-2,0,-2,i,2,-13,
CC(=O)Nc1c2c(nn1-c1ccccc1C)CSC2,-6,-3,1,3,-2,i,-2,-2,
COc1ccc(NC(=O)C2CC(=O)N(c3ccccc3C)C2)c(OC)c1 (configuration not stated),22,-11,-2,-2,3,i,-2,0,
O=C(CSc1nc(-c2ccc(Cl)cc2)[nH]c(=O)n1)Nc1cccc(Cl)c1,-7,-2,3,-2,-5,i,1,49,
Cc1ccc(NC(=O)CSc2nc3nn(-c4ccccc4)c(=O)c-3c3n2CCCCC3)cc1F,28,-5,2,-8,x,x,x,-5,
COc1ccc(NC(=O)CSc2nnc(CNc3ccc(C)cc3)n2C)cc1,7,x,4,6,9,i,-9,x,
CC[C@@H](C)[C@H](NC(=O)Cc1c(C)c2cc3c(C)c(C)oc3c(C)c2oc1=O)C(=O)O,19,-9,-2,-2,2,i,16,-9,
O=C(OC1CCOC1=O)c1cc(Cl)ccc1[N+](=O)[O-] (configuration not stated),5,-9,-4,3,-5,i,10,-14,
COc1ccc(C(=O)N=C2SC3CS(=O)(=O)CC3N2c2ccc(C(C)=O)cc2)cc1 (configuration not stated),5,-14,4,2,-4,i,-8,-13,
CC(C)OCCCNC(=O)c1sc(=S)n(C)c1N,-15,30,4,8,-10,i,14,4,
Cc1ccc(-c2nnc(N3CCN(S(C)(=O)=O)CC3)c3ccccc23)cc1,19,-5,4,-7,6,i,6,2,
Cc1nc2ccccn2c1-c1csc(Nc2cccc(C(=O)O)c2)n1,7,1,-1,4,-8,i,9,-11,
COc1ccccc1NC(=O)C(=O)NNC(=O)c1ccco1,13,-15,-6,-7,-2,i,-6,-1,
COc1cccc(OC)c1C(=O)NC(=S)NCc1ccco1,5,x,3,4,0,i,-8,3,
CC(OC(=O)c1ccc2c(c1)C(=O)N(Cc1ccncc1)C2=O)C(=O)Nc1cccc(Cl)c1Cl (configuration not stated),-14,x,6,3,-10,i,-5,0,
CC(C)(C)Nc1nc(Cl)nc(NC(C)(C)C)n1,16,-18,1,-1,-8,i,11,-7,
Cc1csc2nc(O)c(C(=O)NCC3CCCO3)c(=O)n12 (configuration not stated),-3,-6,2,0,x,i,x,-3,
CCN(CC(=O)Nc1c(F)cccc1F)C(=O)CNC(=O)c1ccc2c(c1)OCO2,x,-12,-1,1,42,i,58*,7,eIF4H inh retest=38;PABP FP inh retest=66*
CC(C)CC1C(=O)N(Cc2cn(CC3CCCCC3)nn2)CCS(=O)(=O)N1Cc1ccc(-c2ccc(F)nc2)cc1 (configuration not stated),15,-5,0,-7,x,x,x,x,
OC(CN1CCN(c2ccccc2)CC1)c1ccc2c(c1)CCN2 (configuration not stated),-6,-3,4,4,3,i,13,-18,
O=C1CCN(Cc2ccccc2)CCN1[C@H](COc1ccccc1)c1ccccc1,-27,-1,-5,-5,2,i,-7,13,
COCCN(C(=O)CSc1nnc(-c2ccco2)n1C)c1c(N)n(CC(C)C)c(=O)[nH]c1=O,-12,-13,-1,6,x,x,x,9,
COc1ccccc1N=C1SCC(=O)N1Cc1ccco1,8,x,-3,0,3,i,0,-5,
O=C(Nc1cnc2ccccc2c1)c1ccco1,x,-30,5,6,0,i,12,-1,
CC1(C)CC2(CC(c3ccc(F)cc3)c3ccc(O)cc3O2)NC(=S)N1 (configuration not stated),-182,-26,-1,0,10,i,-4,-13,
COc1ccc(S(C)(=O)=O)cc1S(C)(=O)=O,-49,x,2,-3,-5,i,-3,-17,
O=C(Nc1nnc(CSCc2ccc(Cl)cc2)s1)c1cccc([N+](=O)[O-])c1,-6,x,2,-21,-4,i,0,16,
CCOc1cc(Cl)c(S(=O)(=O)NCCCn2ccnc2)cc1Cl,16,-19,-1,-22,-9,i,-15,18,
# Further structures:
SMILES,Env fusion inh,Yeast UUG start,MT1-MMP act inh,MT1-MMP act inh RFP,eIF4H inh,Rce1 inh,PABP FP inh,CSC inhib,others
COc1ccc(NC(C)=O)cc1S(=O)(=O)NC1CCSc2ccccc21 (configuration not stated),-5,5,2,4,-4,i,3,9,
O=C(Nc1ccncc1NC(=O)c1cccc([N+](=O)[O-])c1)c1cccc([N+](=O)[O-])c1,18,-1,-2,-1,-4,i,-18,-4,
Cc1ccc(C(=O)NCCCN2CCOCC2)cc1N1CCCC1=O,-38,-10,0,2,-10,i,-9,-9,
Cc1ccc2nc(-c3ccc(S(=O)(=O)N4CCOCC4)cc3)cn2c1,x,x,x,x,2,i,-4,x,
CCCCOC(=O)C(NC(=O)c1ccccc1)=C(C)C,x,x,6,12,3,i,-1,2,
CCN1CCc2c(sc3c2c(NCc2ccco2)nc2nnnn23)C1,-166,-19,-8,10,57*,i,81*,-4,
CCC1(c2ccc(F)cc2)NC(=O)N(CC(=O)NCC(=O)Nc2cccc(C)c2C)C1=O (configuration not stated),-7,x,5,3,x,i,x,x,
Cc1ccc(/C=N\NC(=O)CCc2n[nH]c(=O)[nH]c2=O)o1,6,x,2,0,1,i,-6,-3,
CCC(CC)NC(=O)COC(=O)c1cc(SC)ccc1Cl,8,x,-2,2,4,i,1,-7,
CCOC(=O)C(NC(=O)c1cccc(Cl)c1)(Nc1nnc(C)s1)C(F)(F)F (configuration not stated),15,-7,0,1,-4,i,-8,-16,
CCCCOc1ccc(S(=O)(=O)NC(=O)NCc2ccc(OCCC)cc2)cc1,x,2,1,0,-3,i,-4,7,
Cc1cc(=O)oc2c(C)c(OCC(=O)N(C)C)ccc12,x,62,4,2,-3,x,3,-4,
Cn1cc(C(=O)Nc2ccccn2)c(=O)c2ccccc21,-28,-5,-2,3,-3,i,-3,x,
Cc1ccc(NC(=O)Cn2ncc(Cl)c(Cl)c2=O)cc1S(=O)(=O)N1CCCCC1,9,-7,0,-7,x,x,x,x,
Cc1cc(C(=O)COC(=O)CN(C)S(=O)(=O)c2ccc(Cl)cc2)c(C)n1CC1CCCO1 (configuration not stated),-9,17,1,6,-3,i,-4,12,
COc1ccc(-c2cc(C(=O)NCC3CCCO3)c3ccccc3n2)cc1 (configuration not stated),3,x,0,-5,-6,i,-16,-4,
CC(=O)/C(C#N)=C1\NC(=O)C(Cc2ccc(F)cc2)S1 (configuration not stated),-4,-2,-4,0,-5,i,-9,4,
CC(OC(=O)Cc1ccc(Br)cc1)C(=O)NC1CCCC1 (configuration not stated),-33,-23,0,4,x,x,x,-3,
Fc1ccccc1NC(=S)N1CCCCC1,11,x,-4,-2,-1,i,2,-6,
CCOc1cc(/C=N/N=C2/NC(=O)C(CC(=O)O)S2)ccc1OCc1ccc(Cl)cc1Cl (configuration not stated),x,x,-1,-2,91,i,11,-9,eIF4H inh retest=31;PABP FP inh retest=40
CC(=O)NC1(c2ccc(F)cc2)CCN(C(=O)c2c(F)cccc2F)CC1,4,-4,-1,0,-8,i,1,-6,
COc1ccc2c(CC(=O)OCC(=O)NC(=O)c3cccn3C)coc2c1,x,-12,0,0,-7,i,11,-2,
O=C(COc1cccnc1[N+](=O)[O-])NCCc1ccccc1,-3,x,2,3,1,i,-1,x,
Cc1ccc(-n2c(C)cc(/C=c3/sc4nc5ccccc5n4c3=O)c2C)cc1,x,x,x,x,21,i,43,-8,
C(=NNc1ccc2ccccc2n1)c1ccccn1,17,-42,-8,-11,x,x,x,x,
COc1ccc(NC(=O)CS(=O)(=O)c2ccc(Br)cc2)cc1,-5,-12,2,2,-3,i,-8,x,
Cc1cc(C)c(S(=O)(=O)NC(C)C)c(C)c1-n1cnnn1,18,-9,0,0,-7,i,0,7,

# Reprinted at random: 5 entries already listed.
SMILES,Env fusion inh,Yeast UUG start,MT1-MMP act inh,MT1-MMP act inh RFP,eIF4H inh,Rce1 inh,PABP FP inh,CSC inhib,others
N#Cc1ccc(C(=O)Nc2ccn(-c3ccccc3)n2)cc1,15,x,0,-12,-12,i,6,4,
CCOc1cc(Cl)c(S(=O)(=O)NCCCn2ccnc2)cc1Cl,16,-19,-1,-22,-9,i,-15,18,
Cc1ccc2nc(-c3ccc(S(=O)(=O)N4CCOCC4)cc3)cn2c1,x,x,x,x,2,i,-4,x,
CCCCOC(=O)C(NC(=O)c1ccccc1)=C(C)C,x,x,6,12,3,i,-1,2,
O=C(OC1CCOC1=O)c1cc(Cl)ccc1[N+](=O)[O-] (configuration not stated),5,-9,-4,3,-5,i,10,-14,

# Not a hit list; about 2.9% have a hit in one of these screens.
